GLA inh pH 4.5 = alpha-galactosidase A (human) inhibition, pH 4.5. P06280. purified enzyme, 4-MU-alpha-Gal fluorescence, pH 4.5. activity change, negative = inhibition, % at 105 µM. 230,000 tested, under 10 active; inconclusive = small, poorly fitted or top-dose-only inhibition, or a rising curve; inactive = flat fitted curve, though single readings scatter; no compound was filed as active;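 also: 0% = full activity with enzyme and -100% = basal without enzyme; dose as in the result columns while the protocol names 77 µM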
Rango dissoc inh = prevents RanGTP from dissociating the Rango-importin beta complex; 340,000 compounds, 0.071% hits; Biochemical FRET Rango-importin beta, RanGTP-induced dissociation; Potency, µM (doses to about 46.1 µM), without a hit: at the highest dose activity change, negative = inhibition; active means falling FRET ratio curve, often poorly fitted, with flat reads before Ran was added; inconclusive means other falling curves, or compound fluorescence or quenching; inactive means flat or rising ratio curve;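 also: potency is read from the fitted curve at half-maximal effect; % of control where 0% means no effect; nearly all actives have a fitted effect of over 45% in size; -100% = wells without RanGTP and RCC1; the record marks most hits as doubtful in a second field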
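Rango/importin beta premix (0.1/0.25 uM final), PBS + 1 mM DTT + 0.02% Tween-20 + 0.1% BSA; cpd 5 min RT; FRET pre-read; + RanGTP-RCC1 (0.6 uM Ran, 2 mM GTP, 0.2 uM RCC1); 45 min RT; FRET post-read, ex 430, em 486/530 nm.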
Rango complex inh = Rango-importin beta binding inhibition; Q14974; Rango CFP/YFP FRET sensor + importin beta, 45 min; Potency, µM (top dose mostly 92.2 µM), for inactives: at the top dose inhibition of complex formation; 340,000 compounds, 0.031% hits; active = rising FRET ratio curve, often small or poorly fitted; inconclusive = mostly compound fluorescence or quenching in the first reads; inactive = flat curves in all reads;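 also: potency is read from the fitted curve at half-maximal effect; 0% = DMSO wells and 100% = buffer wells lacking importin beta; nearly all actives have a fitted effect of over 15% in size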
Target sequence (Q14974 whole entry, looked up): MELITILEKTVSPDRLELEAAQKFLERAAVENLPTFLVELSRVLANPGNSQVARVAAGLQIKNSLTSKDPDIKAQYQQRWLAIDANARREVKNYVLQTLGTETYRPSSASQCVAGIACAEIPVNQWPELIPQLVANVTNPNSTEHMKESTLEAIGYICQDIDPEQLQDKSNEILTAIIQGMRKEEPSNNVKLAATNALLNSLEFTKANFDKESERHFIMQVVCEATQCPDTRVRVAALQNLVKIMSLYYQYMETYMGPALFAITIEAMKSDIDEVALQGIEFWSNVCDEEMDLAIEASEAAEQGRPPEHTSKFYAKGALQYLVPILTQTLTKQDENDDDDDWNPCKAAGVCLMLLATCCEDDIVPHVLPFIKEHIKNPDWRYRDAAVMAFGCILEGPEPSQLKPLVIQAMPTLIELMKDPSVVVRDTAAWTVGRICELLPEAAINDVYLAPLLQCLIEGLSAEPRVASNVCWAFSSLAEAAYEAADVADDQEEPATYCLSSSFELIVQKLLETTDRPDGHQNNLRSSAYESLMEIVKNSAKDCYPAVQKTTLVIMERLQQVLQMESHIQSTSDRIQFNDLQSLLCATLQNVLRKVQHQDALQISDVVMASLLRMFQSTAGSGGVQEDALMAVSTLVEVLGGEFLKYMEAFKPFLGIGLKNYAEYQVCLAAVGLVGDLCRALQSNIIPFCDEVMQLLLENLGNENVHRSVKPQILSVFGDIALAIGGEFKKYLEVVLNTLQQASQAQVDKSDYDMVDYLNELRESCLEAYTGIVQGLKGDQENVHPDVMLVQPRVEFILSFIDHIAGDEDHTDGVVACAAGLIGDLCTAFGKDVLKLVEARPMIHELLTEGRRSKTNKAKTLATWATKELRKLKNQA
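FRET biosensor Rango (snurportin 1 IBB between N-terminal EYFP and C-terminal Cerulean), 50 nM in PBS/1 mM DTT/0.02% Tween-20/0.1% BSA, preincubated 5 min RT with compound; 0.125 microM importin beta added, 45 min RT, CFP/YFP FRET ratio read.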
miR-21 FLuc = miR-21 reporter, rising signal. 340,000 tested, under 10 active. HeLa miR-21 FLuc reporter, luciferase, 48 h. AID 2288. Potency, µM (doses to about 38.3 µM), for inactives: at the top dose reporter change, positive = more light; active = well fitted rising curve with a large enough effect; inconclusive = small, poorly fitted or top-dose-only effect; inactive = no such curve, though single readings can be large or run the other way;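 also: % of control where 0% means no effect; miR-21 action dims this reporter so a rising signal means less miR-21 action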
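Luminescence from a firefly luciferase reporter carrying a miR-21 binding site downstream, stably expressed under a CMV promoter in HeLa cells that make miR-21 endogenously, reports miRNA modulation after 48 h compound exposure up to approximately 40uM final.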
* marks the source's active call; other numbers are inactive results; ? = inconclusive; . = not tested or not shown; & = joins results of further samples.

Compound	GLA inh pH 4.5	Rango dissoc inh	Rango complex inh	miR-21 FLuc
CCN(C(=O)c1ccc(C)c(Br)c1)c1ccccc1	-6	10%	-1.8%	2%
COc1ccc(/C=C(/C#N)C(=O)NC2CCCCC2)cc1Br	-5	1%	-0.6%	0%
CN(C)C(=O)CSc1cnc2ccccc2n1	-18	-12%	-2.1%	1%
CCNC(=O)CSc1nc2cc([N+](=O)[O-])ccc2n1-c1cccc(C(F)(F)F)c1	2	30%	-2.3%	-2%
Cc1ccc(-c2ccc(CCC(=O)O)n2Cc2ccco2)cc1	-20	2%	0.4%	1%
CC1CCN(C(=O)Cn2c(=O)oc3ccccc32)CC1	-8	1%	-0.8%	-7%
Cc1ccc(C(NC(=O)N2CCCC2)C(Cl)(Cl)Cl)cc1F (stereo not given)	-10	-4%	-3.7%	-1%
O=C1c2ccccc2NC2(CCCCC2)N1N=C1CCCCC1	14	19%	0.0%	-41%
CCCN(CC(=O)Nc1ccccc1C)CC(=O)Nc1ccc(Br)cc1F	.	4%	-2.6%	5%
CC(C)c1nnc(SCC(=O)N2CCN(C(=O)c3ccco3)CC2)n1N	1	-9%	-2.8%	-1%
N#Cc1cccc(NC(=O)CCc2ccc(S(=O)(=O)N3CCOCC3)cc2)c1	.	1%	0.0%	.
COCCNc1ncnc2c1nc1n2CCCC1	.	12%	-3.5%	0%
CC12CCC(=O)N1C(C(=O)N1CCN(S(=O)(=O)c3ccc(Br)cc3Cl)CC1)CS2 (stereo not given)	.	-8%	0.8%	.
CC(C)CN1C(=O)C(=O)N(CC(=O)c2ccc3c(c2)OCO3)C1=O	.	11%	1.8%	.
CC(C)Cc1nnc(NC(=O)CCC(=O)NC2CCCC2)s1	.	-14%	1.5%	2%
Cc1ccc2cc(C#N)c(NCCNC(=S)NCCCN3CCOCC3)nc2c1	0	-23%	-0.7%	29%
O=C(OCC(=O)N1CCN(C(=O)c2ccco2)CC1)c1ccccc1	2	-5%	2.9%	-16%
O=C(NCc1nc2ccccc2[nH]1)c1ccc(S(=O)(=O)N2CCOCC2)cc1	4	-11%	-0.6%	-10%
CCC(=O)c1ccc(OCC(=O)OCC(=O)c2cc(C)n(C)c2C)cc1	.	1%	-0.3%	-7%
COc1ccc(NC(=O)CSc2nc3ccccc3c(=O)n2CCCC(=O)NCC2CCCO2)c(OC)c1 (stereo not given)	.	-3%	0.2%	1%
CC(O)CNCCCOc1cccc(Oc2ccccc2)c1 (stereo not given)	3	5%	1.7%	-11%
CCOC(=O)C1CCN(C(=O)C(CCSC)NC(=O)COc2ccccc2)CC1 (stereo not given)	.	7%	0.5%	.
O=C(CNC(=O)c1ccccc1Br)N/N=C/c1ccc(O)cc1	5	-20%	1.1%	-4%
C=CCn1c(COc2cccc(C)c2)nnc1SCn1nnc2ccccc2c1=O	2	-8%	1.9%	-22%
CCN(CC)CCN(C(=O)C1CCCCC1)c1nc2cc3c(cc2s1)OCO3	.	17%	0.8%	-5%
CCOc1ccc(NC(=O)CN2C(=O)CCSc3ccc(S(=O)(=O)N4CCCC4)cc32)cc1	.	-14%	-0.2%	0%&-2%
Cc1nn(C2CCS(=O)(=O)C2)c(C)c1CN(C)C(=O)c1ccc(Cl)cc1 (stereo not given)	.	-1%	-4.3%	.
Cc1ccc(OCC(=O)N(Cc2cccc(F)c2)C2CCS(=O)(=O)C2)cc1 (stereo not given)	.	-8%	-1.8%	-2%
O=C(Nc1ccccc1Cl)c1sccc1-c1ccccc1	.	12%	-2.5%	-6%
Cc1ccccc1Cn1cc(NC(=O)CSc2nc3c(c(C(F)(F)F)n2)CCc2ccccc2-3)cn1	3	5%	-0.2%	-4%
Cc1cc(C)n(C(=O)COc2c(C)cccc2C)n1	1	15%	2.7%	-5%
O=C(NNS(=O)(=O)c1ccccc1)Nc1ccc(F)cc1	.	-6%	-0.1%	-8%
C/C(=N/NC(=O)CN1CCN(Cc2ccccc2Cl)CC1)c1ccco1	2	-22%	6.3%	-17%
COc1cccc(-c2c(C(=O)N/N=C(\C)c3ccc(Cl)s3)nnn2-c2nonc2N)c1	.	1%	-0.4%	1%
CN1C2C(Br)CCCCN2c2ccc(F)cc2S1(=O)=O (stereo not given)	.	11%	-1.2%	-4%
CC(C)C(=O)c1cc2c(cc1NC(=O)c1ccccc1)OCCO2	-5	-4%	-1.9%	-4%
COCc1ccc(C(=O)NC2CC(C)(C)Cc3c2cnn3-c2ccc(C)cc2)o1 (stereo not given)	.	-12%	0.7%	0%
CNCCCOc1cccc(OC(C)C)c1	-10	-18%	-1.4%	-9%
CCOc1c(Br)cc(/C=C2\N=C(C)OC2=O)cc1Br	.	5%	-0.7%	3%
NS(=O)(=O)c1ccc(NC(=O)COC(=O)/C=C/c2ccc([N+](=O)[O-])cc2)cc1	-1	24%	1.0%	-7%
CC(=O)Nc1ccc(NC(=O)c2sc3nc4c(c(-c5ccc(C)cc5)c3c2N)CCC4)cc1	1	?	?	-16%
O=C(CCNc1cccc(Cl)c1)c1cccs1	6	-12%	2.8%	-31%
CCOc1ccccc1CNC(=O)CCc1cn(CC)c2ccccc12	.	-11%	0.4%	0%
COC(=O)[C@]1(C)N[C@H](c2ccc(-c3ccc(Cl)c(Cl)c3)c(OC)c2)[C@@H]2C(=O)N(C)C(=O)[C@@H]21	.	13%	3.7%	.
O=S(=O)(Nc1cccc(F)c1)c1cccc2nsnc12	.	-9%	-2.6%	0%
COc1ccc(NC(=O)NNC(=O)c2ccc3ccccc3c2)cc1OC	.	5%	0.6%	-8%
COc1ccc(NC(=O)C(CC(=O)O)Cc2ccc(Br)cc2)cc1 (stereo not given)	.	1%	0.4%	-4%
Cc1ccc(NC(=O)CSC2=C(C#N)C(c3ccco3)C3=C(CCCC3=O)N2)cc1 (stereo not given)	-10	-21%	-5.5%	-22%
CCCCCOC(=O)C1=C(C)Nc2nnnn2C1c1ccccc1Cl (stereo not given)	2	5%	-2.2%	21%
O=C(O)c1ccc(CNc2ccccc2C(=O)O)cc1	2	0%	0.6%	-2%
Nc1c(-c2ccc(Cl)cc2)cnn1-c1cccc(C(F)(F)F)c1	7	1%	3.4%	-45%
COc1cccc(CNC(=O)CCS(=O)(=O)c2ccccc2Cl)c1	.	-20%	-1.1%	.
CN(Cc1nc(-c2ccncc2)no1)S(=O)(=O)c1ccc(Cl)cc1	-1	12%	-0.1%	10%
O=C(Nc1cccc(F)c1)c1cc(-c2ccco2)nc2ccccc12	.	-21%	-4.1%	.
COc1ccc(S(=O)(=O)N(CC(=O)NN=C2CCN(C)CC2)c2cc(Cl)ccc2OC)cc1OC	.	-7%	2.6%	0%
Cc1ccc(S(=O)(=O)N2CCN(CC(=O)NC(=O)NCc3ccccc3)CC2)cc1C	0	-6%	0.4%	-10%

Next part
Compound	GLA inh pH 4.5	Rango dissoc inh	Rango complex inh	miR-21 FLuc
O=C(O)c1cnn(-c2ccccc2)c1C(F)(F)F	4	0%	12%	-8%
CCOC(=O)c1[nH]c(C)c(C(=O)Nc2ccc3c(c2)CCC3)c1C	5	0%	-4.6%	-16%
CCCCCN(C(=O)CCC(=O)OCC(=O)Nc1cccc(CC)c1)c1c(N)n(CCCC)c(=O)[nH]c1=O	.	-12%	1.7%	.
O=C(CN1CCN(c2ccc(F)cc2)CC1)Nc1ccccc1[N+](=O)[O-]	-14	12%	0.3%	-8%
O=C(Nc1cccc(Cl)c1N1CCCC1)c1cccc(-c2cc3ccccc3oc2=O)c1	-2	1%	-2.6%	-40%
O=C(C1CCCCC1)N1CCN(c2ncccn2)CC1	-4	16%	-0.3%	0%
O=C(COc1ccc(Cl)cc1)NCc1nnc(SCC(=O)Nc2ccccc2)o1	2	?	-3.4%	0%
COc1cccc2sc(N(CCCN(C)C)C(=O)c3ccc(S(=O)(=O)N4CCc5ccccc5C4)cc3)nc12	.	17%	0.2%	14%
COCCn1c(C)nnc1SCC(=O)NNC(=O)c1ccc(Br)cc1	.	-7%	-2.3%	0%
CCCc1nc2nc(C)c(NS(=O)(=O)c3ccc(F)cc3)c(=O)n2[nH]1	.	-1%	0.0%	-4%&-1%
CC(C)N(C(=O)Cn1cc(S(=O)(=O)CC(=O)NCc2ccc(F)cc2)c2ccccc21)C(C)C	.	-15%	-2.3%	-1%
O=C(CCN1CCN(CC(=O)Nc2ccccc2Cl)CC1)Nc1ccccc1F	-4	-13%	3.5%	0%
C=C1CC[C@H](O)C/C1=C/C=C1\CCC[C@]2(C)[C@@H]([C@H](C)/C=C/[C@H](C)C(C)C)CC[C@@H]12	.	-8%	3.4%	.
OC(c1ccc(Cl)cc1)C(CN1CCOCC1)c1ccccc1 (stereo not given)	.	-3%	9.0%	3%
O=C(CN(C(=O)c1csnn1)c1ccccc1)NCCc1ccccc1	.	-2%	-1.5%	9%
CN(Cc1cc2ccccc2[nH]c1=O)S(=O)(=O)c1ccccc1	-7	-2%	4.0%	-26%
O=C(c1ccc(S(=O)(=O)NCC2CCCO2)cc1)N1CCN(c2ccccc2F)CC1 (stereo not given)	2	-1%	-1.2%	10%
O=C(COc1ccc(S(=O)(=O)N2CCOCC2)cc1)N1CCN(c2ccccc2)CC1	.	1%	-1.4%	4%
C#CCNC(=O)C1=C[C@H](c2coc3ccccc3c2=O)C[C@H](OCCCCO)O1	7	-21%	0.0%	3%
CNC(=O)C1CCN(S(=O)(=O)c2c(C)noc2/C=C/c2cccc(OC)c2)CC1	.	-17%	0.6%	-10%
Cc1nc(-c2ccccn2)nc(SCC(=O)c2ccccc2)c1Cl	-2	11%	-0.3%	22%
N#Cc1nc(-c2ccc(OCc3ccc(Cl)cc3)cc2)oc1NCc1cccnc1	-3	-3%	1.6%	-31%
Cc1ccc(/C=C/C(=O)O)cc1S(=O)(=O)Nc1ccccc1C(=O)O	-2	6%	-2.5%	2%
CN(C)CCOC(=O)c1ccc(COc2ccccc2Br)o1	.	-8%	1.5%	-8%

Full records, looked up by structure. Screens in order: GLA inh pH 4.5 | Rango dissoc inh | Rango complex inh | miR-21 FLuc
Cc1ccc(/C=C/C(=O)O)cc1S(=O)(=O)Nc1ccccc1C(=O)O as listed: -2 | 6% | -2.5% | 2%
Cc1nc(-c2ccccn2)nc(SCC(=O)c2ccccc2)c1Cl as listed: -2 | 11% | -0.3% | 22%
O=C(COc1ccc(S(=O)(=O)N2CCOCC2)cc1)N1CCN(c2ccccc2)CC1 as listed: . | 1% | -1.4% | 4%
C#CCNC(=O)C1=C[C@H](c2coc3ccccc3c2=O)C[C@H](OCCCCO)O1 as listed: 7 | -21% | 0.0% | 3%
N#Cc1nc(-c2ccc(OCc3ccc(Cl)cc3)cc2)oc1NCc1cccnc1 as listed: -3 | -3% | 1.6% | -31%

Shown as labelled records: part of the list above.
CCCN(CC(=O)Nc1ccccc1C)CC(=O)Nc1ccc(Br)cc1F
  GLA inh pH 4.5 = .
  Rango dissoc inh = 4%
  Rango complex inh = -2.6%
  miR-21 FLuc = 5%

C=CCn1c(COc2cccc(C)c2)nnc1SCn1nnc2ccccc2c1=O
  GLA inh pH 4.5 = 2
  Rango dissoc inh = -8%
  Rango complex inh = 1.9%
  miR-21 FLuc = -22%

Later entries
Compound	GLA inh pH 4.5	Rango dissoc inh	Rango complex inh	miR-21 FLuc
Cc1c(C=O)c2ccccn2c1C(=O)c1cccc([N+](=O)[O-])c1	-2	-9%	-0.7%	-5%
Cc1ccccc1OCC(=O)NC(Cc1c[nH]c2ccccc12)C(=O)O (stereo not given)	-4	3%	4.9%	3%
Cc1cc(C)c(S(=O)(=O)n2c([N+](=O)[O-])cnc2C)c(C)c1	6	-15%	1.4%	4%
O=C(O)c1nc(-c2ccccc2)n(-c2cccc(C(F)(F)F)c2)n1	-1	13%	2.3%	-7%

From PubChem

Some of the compounds tested; count on the stated rates, not on these rows.
